KCNQ2 inh: KCNQ2 potassium channel inhibitors, primary screen, cell-based, CHO-K1, FluxOR thallium flux, B-score (AID 2156) | Potassium voltage-gated channel subfamily KQT member 2 (Rattus norvegicus), O88943 | 20 min; active compounds read low; only compounds with negative scores are shown here; some inactives read as strong as hits | B-score at 10 µM | hit rate 1.1% among 310,000;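 active means fluorescence ratio B-score at most minus 3 library SDs, with starting brightness B-score within 2 library SDs, cut at about -5.5 in these data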
Target sequence (O88943 whole entry, looked up): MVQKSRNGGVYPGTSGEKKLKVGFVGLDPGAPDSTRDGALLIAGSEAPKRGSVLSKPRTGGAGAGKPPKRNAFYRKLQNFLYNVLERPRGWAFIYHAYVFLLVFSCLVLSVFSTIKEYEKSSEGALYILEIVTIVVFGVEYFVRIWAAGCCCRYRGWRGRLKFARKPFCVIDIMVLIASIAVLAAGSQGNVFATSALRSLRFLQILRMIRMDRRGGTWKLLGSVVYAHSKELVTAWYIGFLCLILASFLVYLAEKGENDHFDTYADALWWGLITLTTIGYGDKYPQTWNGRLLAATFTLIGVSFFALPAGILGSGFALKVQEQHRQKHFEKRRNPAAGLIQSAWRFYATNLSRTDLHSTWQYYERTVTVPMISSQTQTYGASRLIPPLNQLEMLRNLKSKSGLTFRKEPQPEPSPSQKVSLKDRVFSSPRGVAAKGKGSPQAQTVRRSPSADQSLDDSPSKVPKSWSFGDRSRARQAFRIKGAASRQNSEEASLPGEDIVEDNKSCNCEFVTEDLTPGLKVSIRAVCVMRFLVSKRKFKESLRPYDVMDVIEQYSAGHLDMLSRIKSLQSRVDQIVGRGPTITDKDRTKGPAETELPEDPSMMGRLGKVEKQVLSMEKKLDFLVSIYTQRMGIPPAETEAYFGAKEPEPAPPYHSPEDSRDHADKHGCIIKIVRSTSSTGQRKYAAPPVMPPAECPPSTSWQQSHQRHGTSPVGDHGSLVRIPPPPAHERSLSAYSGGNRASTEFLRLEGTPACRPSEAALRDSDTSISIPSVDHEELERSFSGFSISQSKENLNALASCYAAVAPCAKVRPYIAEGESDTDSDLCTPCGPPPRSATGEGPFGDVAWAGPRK
KCNQ2 inh baseline: also measured in KCNQ2 inh; calls as there; B-score; measured here: initial fluorescence intensity artifact check;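 brightness before thallium and not channel activity; 0 = typical well and far values either way flag optical interference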
Numbers without * were called inactive; i = inactive. A portion of the library (hit frequency here may not be typical).

Second line of a record – KCNQ2 inh | KCNQ2 inh baseline
Cc1cccc(/C=C2\CCC(C3CCCC3)C2=O)c1 (stereo not drawn)
  i | 0.02
N#C/C(=C\c1ccc(O)c(O)c1)S(=O)(=O)c1ccccc1
  i | 0.23
Clc1ccc2oc3c(Cl)ncnc3c2c1
  i | -1.4
COc1cc(CNCCSc2nnnn2C)cc(Br)c1OCc1ccc(F)cc1
  i | 1.2
C[C@]12CCC[C@H](O1)c1c(cc3c(c1O)C(=O)c1c(O)cc(O)cc1C3=O)O2
  i | 2.5
Nc1nc(C2CC(=O)OC23CCCCC3)cs1 (stereo not drawn)
  i | -1.3
Cc1ccc(S(=O)(=O)N2CCN(c3nc4ccccc4nc3-n3nc(C)cc3C)CC2)cc1
  -6* | -0.02*
CCc1cccc(CC)c1NC(=O)C1CSC2(C)CCC(=O)N12 (stereo not drawn)
  i | -0.82
Cc1ccc(SCC(=O)NCc2ccco2)cc1
  i | -0.29
COc1cc(OC)cc(C(=O)NCCOC23CC4CC(CC(C4)C2)C3)c1
  i | -0.27
Cc1c(NC(=S)/C=C2\N(C)c3ccccc3C2(C)C)c(=O)n(-c2ccccc2)n1C
  i | -0.01
CCCCN1C(N)=NC[C@@H]1Cc1ccc(O)cc1
  i | 1.9
CN(Cc1ccccc1)c1nc2c(c(=O)[nH]c(=O)n2C)n1CCCc1ccccc1
  i | -0.72
O=C(Nc1ccc2c(c1)C(=O)NC2=O)c1ccc(Cl)s1
  i | 1.7
O=C(NC1CCCCC1)c1cc2ccccc2cc1O
  i | 0.84
Cc1ccc(S(=O)(=O)/N=C(/Nc2ccc3[nH]c(=O)[nH]c3c2)c2ccccc2)cc1
  i | 3
O=C(CSCc1ccccc1)NCCCN1CCOCC1
  i | -0.88
CCn1c(SCC(=O)N2CCOCC2)nc2ccccc21
  i | -0.01
COCC(=O)Nc1cc(OC)ccc1OC
  i | 0.05
CCOC(=O)Cn1c(=NC(=O)C2CC2)sc2c(C)cc(C)cc21
  i | 1.4
CN(C)CCNC(=O)c1ccc(COCC(F)(F)F)cc1
  i | -1.6
CCOC(=O)C(Cc1ccc(NC(=O)/C(=C/c2ccccc2)NC(=O)c2ccccc2)cc1)N1C(=O)c2ccccc2C1=O (stereo not drawn)
  i | -1
COc1ccccc1NS(=O)(=O)c1cccc(-n2c(O)c(C=Nc3ccccc3C(=O)O)c3ccccc3c2=O)c1
  i | 2.9
O=C(CCc1ccccc1)N1CCN(c2ccc([N+](=O)[O-])cc2)CC1
  i | 3.2
COc1ccc(-c2noc(CNC(=O)c3ccoc3C)n2)cc1OC
  i | 0.81
CCOC(=O)N1CCN(c2c(NCc3cccs3)c(=O)c2=O)CC1
  i | -1.6
CS(=O)(=O)Nc1ccccc1C(=O)Nc1ccc2c(c1)OCCO2
  i | -0.5
Cc1ccc(NC(=O)CN2CCN(c3ccccn3)CC2)cc1S(=O)(=O)N(C)C
  i | 0.34
CN1CCc2c(OCC(=O)N3CCCc4ccccc43)cccc2C1=O
  i | -1.6
O=C(c1cc2nc(-c3ccc(F)cc3)cc(C(F)(F)F)n2n1)N1CCCCC1c1cccnc1 (stereo not drawn)
  i | -0.79
CCOC(=O)C1CCN(C(=O)c2cc3cc4ccc(C)cc4nc3o2)CC1
  i | 0.17
CC(C)N(C(=O)CSc1nnc(Cc2ccc3c(c2)OCO3)n1C)C(C)C
  i | 0.48
Cc1nc(SCC(=O)NC(=O)NCc2ccco2)nc(C)c1C
  i | 0.63
COC(=O)c1c(NC(=O)C(C)C)sc2c1CCN(Cc1ccccc1)C2
  i | 1.3
O=C(C1=C[C@H](c2coc3ccccc3c2=O)C[C@H](OCc2ccc(CO)cc2)O1)N1CCN(Cc2ccccc2)CC1
  i | -0.52
CC(=O)N1CCN(C(=O)c2ccc3c(c2)OCCO3)CC1
  i | 1.9
Clc1nccc(NCc2ccccc2)n1
  i | 1.3
Cc1c(C(c2ccc(O)cc2)c2c(C)n(C)n(-c3ccccc3)c2=O)c(=O)n(-c2ccccc2)n1C
  i | -0.86
CC(C)COP(=O)(c1ccc(N(C)C)cc1)C(Nc1ccccc1)c1ccccc1 (stereo not drawn)
  i | 1.1
O=C(CCc1nc2ccccc2s1)c1ccccc1
  i | -3
O=C(NCc1ccco1)/C(=C/c1cccc([N+](=O)[O-])c1)NC(=O)c1ccco1
  i | 0.77
CCOC(=O)C1CCCN(CC(O)COC(c2ccccc2)c2ccccc2)C1 (stereo not drawn)
  i | 0.79
CCOc1ccc(C(=O)n2cc(C(=O)OC)c3ccccc32)cc1OCC
  i | -0.13
Cc1nn(C)cc1C1C(C#N)=C(N)N(c2ccc(F)c([N+](=O)[O-])c2)C2=C1C(=O)CCC2 (stereo not drawn)
  i | 1.1
CCCCOc1ccc(NC(=O)C(=O)NCCC2=CCCCC2)cc1
  i | -0.75
CCC1(C(=O)c2ccccc2)C2c3cc(Br)ccc3OC(=O)C21C(=O)N1CCOCC1 (stereo not drawn)
  -9.7* | -1*
COc1ccc2nc(/C=N/NC(=O)[C@H](CCSC)NC(=O)OC(C)(C)C)ccc2c1
  i | -5
O=C(NCC(c1ccco1)N1CCCC1)c1ccccc1Sc1ccc(C(F)(F)F)cc1[N+](=O)[O-] (stereo not drawn)
  i | 1.4
COc1ccc(-c2nnc3ccc(SCC(=O)Nc4cc(C)on4)nn23)cc1OC
  i | 1.9
COC(=O)C1=C(C)N=c2s/c(=C/c3cccs3)c(=O)n2C1c1ccc(F)cc1 (stereo not drawn)
  i | 0.69
CCC(=O)N1CCc2cc(S(=O)(=O)CCC(=O)N3CCCC(C)C3)ccc21 (stereo not drawn)
  i | -0.86
Cc1ccc2c(C)c(C(=O)N3CCC(O)(c4ccccc4)CC3)oc2c1C
  -5.9* | -1.5*
COc1ccc(N/N=C/c2c(C(=O)O)ccc3ccccc23)cc1
  i | 0.01
Cc1cccc(N2CCN(C(=O)c3ccncc3)CC2)c1C
  i | 0.12
COc1ccc(Cn2c(=S)[nH]c3cc(C(=O)NCCCN4CCOCC4)ccc3c2=O)cc1
  i | 0.41
O=C(Nc1cccc(S(=O)(=O)N2CCOCC2)c1)c1ccc2ccccc2n1
  i | 1.7
O=C(CCCc1nc2ccccc2s1)Nc1ccc(N2CCOCC2)cc1
  i | -0.11
Brc1ccccc1CN1CCN(Cc2c[nH]c3ccccc23)CC1
  i | 0.73
CCN(CC)C(=O)COc1coc(CN2CCN(c3ccccc3)CC2)cc1=O
  i | -0.23
Cc1ccc(-c2nnc(-c3ccccc3)o2)cc1
  i | -0.09

Next section:
| Structure | KCNQ2 inh | KCNQ2 inh baseline |
| --- | --- | --- |
| COc1ccc(NC(=O)CSc2nc3sc(C)cc3c(=O)n2C)cc1 | i | -0.05 |
| COC(=O)c1cc(C(=O)Nc2cccc(C)n2)cc([N+](=O)[O-])c1 | i | -0.47 |
| CS(=O)(=O)c1ccc(C(=O)NCc2ccccc2F)cc1 | i | -0.52 |
| Cc1ccc(OCC(=O)O/N=C(\N)Cc2ccc([N+](=O)[O-])cc2)cc1C | i | 0.01 |
| Cn1cccc1Cc1nnc(SCC(=O)NCc2ccco2)n1CCc1ccccc1 | i | -0.44 |
| COc1ccc(-c2oc3c(OC)c(OC)c(OC)c(O)c3c(=O)c2OC)cc1OC | i | -0.28 |
| CCN(Cc1nc(-c2ccc(Cl)cc2)no1)CC1CCCO1 (stereo not drawn) | i | 0.07 |
| COc1ccc(-n2nc(C(=O)NCC(=O)NCCCN3CC(C)CC(C)C3)c3ccccc3c2=O)cc1 (stereo not drawn) | i | 0.82 |
| CS(=O)(=O)N(CC(=O)Nc1ccc(Br)cc1)C1CCCCC1 | i | -0.52 |
| C=CCOn1c(=O)c(-c2ccc(Cl)cc2)[n+]([O-])c2ccccc21 | i | 0.45 |
| N#Cc1cccc(NC(=O)CSc2sc3c(O)cc(=O)[nH]c3c2C#N)c1 | i | -0.41 |
| CCOC(=O)C1(C(=O)OCC)C(c2ccccc2)CC(O)N1C(C)=O (stereo not drawn) | i | 0.3 |
| COc1cc(NS(=O)(=O)c2ccc(NC(=O)/C=C/C(=O)O)cc2)nc(OC)n1 | i | 0.26 |
| C=CCn1c(CC(C)(C)C)nc2ccccc21 | i | 0.23 |
| CC(C)c1cccc(C(C)C)c1NC(=O)COC(=O)c1ccc(OCC(=O)Nc2cccc(C(F)(F)F)c2)cc1 | i | 0.04 |
| COc1ccccc1N=Nc1c(C)n[nH]c1C | i | 1.6 |
| O=C1C2C3CCCC3=C3CCCC3C2C(=O)N1c1cccc(Cl)c1 (stereo not drawn) | i | 0.03 |
| COc1c(C)cccc1C(=O)NC(=S)Nc1ccccc1N1CCCC1 | i | -0.77 |
| CN(CCC#N)S(=O)(=O)c1ccc2[nH]cc(C(=O)NCCc3ccccc3)c(=O)c2c1 | i | 0.34 |
| CC(C)(C)c1ccc(C(=O)NC(Cc2ccccc2)C(=O)O)cc1 (stereo not drawn) | i | -0.88 |
| CC(=O)c1ccc(OCc2cc(C(=O)NCCc3ccc(Cl)cc3)no2)cc1 | i | -0.08 |
| N#Cc1c(N)nc2c(c1N)CC(CCl)O2 (stereo not drawn) | i | 1.1 |
| CC(C)(C)C(=O)COC(=O)C1CC(=O)N(c2ccccc2)C1 (stereo not drawn) | i | 0.38 |
| CCCCC(=O)Nc1cc([N+](=O)[O-])ccc1Cl | i | -1.1 |

In a second layout: 2 of the compounds above.
KCNQ2 inh,KCNQ2 inh baseline,compound
i,0.26,COc1cc(NS(=O)(=O)c2ccc(NC(=O)/C=C/C(=O)O)cc2)nc(OC)n1
i,0.23,C=CCn1c(CC(C)(C)C)nc2ccccc21

(next part)
| Structure | KCNQ2 inh | KCNQ2 inh baseline |
| --- | --- | --- |
| COC(=O)[C@H](Cc1ccccc1)NC(=O)NCc1cccs1 | i | -0.42 |
| COc1cc(OC)cc(C(=O)N[C@H](C(=O)OCC(=O)Nc2ccc(C)cc2C)C(C)C)c1 | i | -1.5 |
| COc1ccc(CNC(=O)CNC(=O)c2ccc(Br)o2)cc1OC | i | 1.1 |
| CN(C)c1ccc(/C=N/NC(=O)c2ccn(C)n2)cc1 | i | -1.6 |
| CCC(CC)C(=O)N1CC(=O)Nc2ccc(Br)cc2C1c1ccccc1 (stereo not drawn) | i | 2.4 |
| CC(=Nc1ccccc1C(F)(F)F)c1ccncc1 | i | 0.03 |
| Cc1ccc(N(Cc2ccccc2O)C(=O)c2ccccc2F)cc1 | i | -1.3 |
| O=C(Cc1ccc(Cl)cc1)NCCS(=O)c1ccc(Cl)cc1 (stereo not drawn) | i | 2.5 |
| O=C(CNC(=O)c1ccc(Cl)cc1Cl)OCC(=O)N1CCCC1=O | i | 0.62 |
| CC(=O)OCC1=C(C(=O)O)N2C(=O)C(NC(=O)c3ccc(COc4ccc(Cl)cc4)o3)C2SC1 (stereo not drawn) | i | 0.31 |
| CCOc1cccc(N(C(=O)Cc2cccs2)C(C(=O)NC2CCCCC2)c2cccn2C)c1 (stereo not drawn) | i | -0.02 |
| Cc1ccc(-n2c3c(cc(C(=O)NC4CCSC4=O)c2=O)C(=O)CC(C)(C)C3)cc1 (stereo not drawn) | i | -0.71 |
| Cc1nn(CC(=O)Nc2ccccc2C(F)(F)F)c(=O)c2cccn12 | i | -2.2 |
| COc1ccc(CCNC(=O)C2CCN(S(=O)(=O)c3ccc4c(c3)oc(=O)n4C)CC2)cc1OC | i | 0.95 |
| NC(=O)c1sc2nc3c(c(-c4cccs4)c2c1N)CCCCC3 | i | -1.9 |
| CC(=O)NC(Cc1ccccc1)C(=O)NC(Cc1ccccc1)C(=O)O (stereo not drawn) | i | -0.32 |
| O=C(O)c1cccc(NS(=O)(=O)c2ccc3c(c2)C(=O)c2ccccc2C3=O)c1 | i | -0.61 |
| COc1ccc(S(=O)(=O)NN(C)C)cc1N(C)S(=O)(=O)c1ccc(Cl)cc1 | i | 1.1 |
| CN(C)c1ccc(C2OC(=O)C3(CCCC3)C(=O)C2(C)C)cc1 (stereo not drawn) | i | -1.3 |
| O=[N+]([O-])c1cc(/C=N/O)ccc1SCc1ccccc1Cl | i | 1.4 |
| O=C(CSC1CS(=O)(=O)c2cc([N+](=O)[O-])ccc21)NNC(=O)c1ccccc1 (stereo not drawn) | i | -1.6 |
| CN1CCN(C(=O)c2cc3c(C(F)(F)F)nn(C)c3s2)CC1 | i | 0.81 |
| COc1ccc(OC)c(NC(=O)CSc2nnc3ccc(-c4ccncc4)nn23)c1 | i | 0.09 |
| CN(C)CCC(c1ccccc1)c1ccccn1 (stereo not drawn) | i | 2.4 |
| Cc1nc2ccccc2c(=O)n1CCCN1CCOCC1 | i | -0.74 |
| N#Cc1ccc(Cn2c(=O)oc3ccccc32)cc1 | i | 0.38 |
| CCCCCCN(C(=O)CCCCCN1C(=O)NC(c2ccc(-c3ccccc3)cc2)C(C(=O)OCc2ccccc2)=C1C)C(C)C(=O)NCCCC (stereo not drawn) | i | -0.24 |
| O=C(Nc1ccc(Cl)cn1)c1cc2c(s1)-c1ccccc1OC2 | i | -0.83 |
| COc1ccc(N=C(C)C2=C(O)c3ccccc3C2=O)cc1 | i | 2.1 |
| Cc1cc(C)nc(SCc2nc3nc(C)cc(C)n3c2Br)n1 | i | 0.93 |

Some of the entries so far, as labelled records.
smiles: CCc1cccc(CC)c1NC(=O)C1CSC2(C)CCC(=O)N12 (stereo not drawn)
  KCNQ2 inh: i
  KCNQ2 inh baseline: -0.82

smiles: O=C(NCC(c1ccco1)N1CCCC1)c1ccccc1Sc1ccc(C(F)(F)F)cc1[N+](=O)[O-] (stereo not drawn)
  KCNQ2 inh: i
  KCNQ2 inh baseline: 1.4

smiles: O=C(Nc1cccc(S(=O)(=O)N2CCOCC2)c1)c1ccc2ccccc2n1
  KCNQ2 inh: i
  KCNQ2 inh baseline: 1.7

Taken from above.
Reading for CC(C)(C)C(=O)COC(=O)C1CC(=O)N(c2ccccc2)C1 (stereo not drawn) in KCNQ2 inh baseline: 0.38
Reading for CCCCCCN(C(=O)CCCCCN1C(=O)NC(c2ccc(-c3ccccc3)cc2)C(C(=O)OCc2ccccc2)=C1C)C(C)C(=O)NCCCC (stereo not drawn) in KCNQ2 inh baseline: -0.24
Reading for Cc1ccc(OCC(=O)O/N=C(\N)Cc2ccc([N+](=O)[O-])cc2)cc1C in KCNQ2 inh baseline: 0.01
Reading for COc1ccc(Cn2c(=S)[nH]c3cc(C(=O)NCCCN4CCOCC4)ccc3c2=O)cc1 in KCNQ2 inh baseline: 0.41
